# Beta apoptosis – inhibitors of cytokine-induced beta cell apoptosis, primary screen, luminescence; protection from apoptosis, % (test concentration not listed); actives 0.8% (n = 300,000); AID 435005, 2010; INS-1E cytokine-induced death, ATP luminescence, 48 h; percent of positive-control rescue, neutral wells zero;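 active = all replicates at 75% or more, or half of them and the mean; inconclusive = half reach 75% but not the mean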;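 note: 0% = cytokine-treated negative control wells and 100% = positive control rescue; higher means more ATP so stronger rescue from cytokine killing; wells of about 40 µL received 100 nL stock; the first replicate is given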
# Ecoli rRNA inh – reduced GFP signal of wild-type E. coli, primary screen, bacterial rRNA inhibitor project, GFP/RFP fluorescence, OD600, single point. E. coli WT GFP vs humanized-ribosome RFP mutants, 24 h; active compounds read low; DMSO median 0, no signal -100. actives 1.6% (n = 350,000). GFP signal change (wild-type ribosome), % (test concentration not listed);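 active = significant combined selectivity score with lowered wild-type GFP, culture density cut under 30%, mutant RFP and density less affected; inactive = any of these conditions unmet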; note: one replicate is shown; some compounds called inactive have numbers as strong as hits
# T cruzi repl – inhibitors of intracellular T. cruzi growth, primary screen, luminescence, NIH3T3 host cells | T. cruzi beta-gal in NIH3T3, 90 h | inhibition, % (test concentration not listed) | actives 1.4% (n = 300,000);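 active = mean inhibition across valid replicates above about 55%, limit read from the data; inconclusive = mean below that limit but half or more replicates reach it; inactive = mean below it, under half of replicates reach it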;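 note: signal also drops with host cell toxicity which is not excluded here; 0% = plate median of DMSO wells and 100% = zero luminescence signal; higher percent means less beta-gal luminescence so fewer parasites; stock transfer was 50 nL into about 50 µL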
# LANA-H2B inh – blockers of LANA interaction with H2A/H2B – biochemical, FP readout, HTS, primary screen; Protein LANA1 (Human herpesvirus 8 type P (isolate GK18)), Q9QR71; cell-free LANA-H2A/H2B peptide, fluorescence polarization; inhibition, % (test concentration not listed); actives 0.6% (n = 320,000); in the data active = inhibition mostly above about 10%, no sharp cut-off; inactive = mostly below about 6.7%;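 note: stock transfer was 7.5 nL into about 10 µL; 0% = median of vehicle wells and 100% = median of positive control wells; one replicate is shown; the record names a cut of 25% in any replicate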
# Target sequence (Q9QR71 whole entry, looked up): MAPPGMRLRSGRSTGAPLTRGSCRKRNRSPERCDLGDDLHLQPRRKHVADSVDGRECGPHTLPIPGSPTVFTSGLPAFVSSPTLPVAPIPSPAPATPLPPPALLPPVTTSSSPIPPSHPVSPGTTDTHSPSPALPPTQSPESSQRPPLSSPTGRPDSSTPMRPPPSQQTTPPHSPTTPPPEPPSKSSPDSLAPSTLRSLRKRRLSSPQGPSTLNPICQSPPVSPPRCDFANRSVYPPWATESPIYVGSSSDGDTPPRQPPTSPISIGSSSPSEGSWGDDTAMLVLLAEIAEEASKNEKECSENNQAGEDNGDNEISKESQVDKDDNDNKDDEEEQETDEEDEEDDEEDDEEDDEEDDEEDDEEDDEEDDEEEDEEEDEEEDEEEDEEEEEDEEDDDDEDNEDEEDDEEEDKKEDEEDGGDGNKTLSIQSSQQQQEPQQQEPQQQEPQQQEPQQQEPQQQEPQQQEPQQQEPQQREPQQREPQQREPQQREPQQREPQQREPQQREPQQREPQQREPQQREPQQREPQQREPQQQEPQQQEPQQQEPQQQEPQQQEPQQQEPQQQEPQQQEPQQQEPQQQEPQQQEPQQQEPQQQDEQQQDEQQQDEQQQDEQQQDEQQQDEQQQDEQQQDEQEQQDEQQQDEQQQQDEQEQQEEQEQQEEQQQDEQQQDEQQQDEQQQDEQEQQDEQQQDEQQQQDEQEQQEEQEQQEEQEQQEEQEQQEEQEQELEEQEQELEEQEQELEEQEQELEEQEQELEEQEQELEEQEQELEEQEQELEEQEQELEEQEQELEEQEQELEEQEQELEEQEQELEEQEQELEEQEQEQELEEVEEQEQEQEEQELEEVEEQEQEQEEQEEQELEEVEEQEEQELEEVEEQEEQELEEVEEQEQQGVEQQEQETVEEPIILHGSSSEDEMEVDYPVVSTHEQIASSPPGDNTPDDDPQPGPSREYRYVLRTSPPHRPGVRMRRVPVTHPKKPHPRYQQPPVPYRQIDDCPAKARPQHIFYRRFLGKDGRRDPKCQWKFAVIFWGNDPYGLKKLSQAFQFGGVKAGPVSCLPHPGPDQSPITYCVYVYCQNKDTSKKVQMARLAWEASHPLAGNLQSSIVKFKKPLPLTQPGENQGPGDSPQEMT
# Beta2AR agonist – beta2AR agonists driving receptor internalization, primary screen, cell-based, FAP fluorogen, flow cytometry; Beta-2 adrenergic receptor (Homo sapiens), P07550; Am2.2-beta2AR cells; reference of the scale not given here; response, % (test concentration not listed); actives 0.43% (n = 340,000); AID 504454, 2011;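 active = response above a set limit, near 3 SD of response in nonfluorescent compounds, cut at about 42% in these data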;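 note: stock transfer was 100 nL into about 11 µL; a reference agonist was the positive control; negative values mostly stem from fluorescent compounds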
# ALR inh – inhibitors of human ALR sulfhydryl oxidase, primary screen, biochemical, H2O2 detection, HRP-luminol luminescence, single point; FAD-linked sulfhydryl oxidase ALR (Homo sapiens), P55789; purified ALR, DTT oxidation; inhibition, % (no concentration beside the values); actives 3.8% (n = 290,000);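 active = mean and each replicate at 75% or more; inconclusive = only one of the two met; inactive = neither met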;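 note: stock transfer was 7.5 nL into about 7.5 µL; 0% = neutral wells and 100% = wells with inactivated enzyme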
# Bfl-1 A1 inh – caspase 3/7 activation in MEF A1-2A-BIM cells, primary screen, A1 inhibitor project, cell-based, luminescence, HTS; Caspase-Glo 3/7 luminescence, 3 h; percent of clofoctol response, vehicle zero; caspase activation, % (concentration not given with the values); actives 0.066% (n = 330,000);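 active = over half of replicate activation scores above 10%, or exactly half above 10 with the replicate mean above 10; inconclusive = replicate mean below 10 yet half the replicates above 10; inactive = over half of replicates below 10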;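 note: wells of about 30 µL received 50 nL stock; many hits fall short of the cut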
# Calb FLC – C. albicans growth inhibition with fluconazole, primary screen, CaCi-2 strain, Alamar Blue fluorescence | C. albicans CaCi-2 (fluconazole-resistant clinical isolate) + fluconazole, 48 h | AID 1979, 2009 | actives 0.57% (n = 300,000) | growth inhibition, % (concentration not given with the values);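 active = most replicates above 75%; inconclusive = exactly half above 75%; inactive = most below 75%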;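 note: all wells also contain fluconazole at 8 µg/ml as a sub-toxic cotreatment; 0% = median of DMSO wells and 100% = median of geldanamycin control wells; wells of about 8 µL received 7.5 nL stock; the first replicate is given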
# Ecoli rRNA inh OD600 – further read-out of Ecoli rRNA inh, marked with its call; OD600 change, %; measured here: OD600 growth;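 optical density of the mix in the first replicate; 0 = DMSO median and -100 = no signal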
# Ecoli rRNA inh RFP – recorded beside Ecoli rRNA inh, whose call it bears; RFP signal change, %; measured here: RFP humanized mutant strains;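 first replicate; 0 = DMSO median and -100 = no signal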
# * = called active by the depositor; ? = inconclusive; . = not tested or not shown. This is a subset. The share of hits here may be higher or lower than overall.
# Short keys: A = Beta apoptosis; B = Ecoli rRNA inh; C = Ecoli rRNA inh OD600; D = Ecoli rRNA inh RFP; E = T cruzi repl; F = LANA-H2B inh; G = Beta2AR agonist; H = ALR inh; I = Bfl-1 A1 inh; J = Calb FLC
CC(Cc1ccccc1)/[N+]([O-])=C\c1ccc(C(F)(F)F)cc1 (configuration not stated)
  A: 2	B: 7	C: 16	D: 1.8	E: -6	F: -0.1	G: -5	H: -6	I: 0.4	J: 16
O=C(COc1ccccc1)N1CCN(C2CC3CCC2C3)CC1 (configuration not stated)
  A: -2	B: .	C: .	D: .	E: 5	F: -7.8	G: 8	H: 20	I: -0.8	J: -4
COc1ccc(-n2c(=O)[nH]c3ccccc3c2=O)cc1
  A: 1	B: .	C: .	D: .	E: -14	F: -0.8	G: -6	H: -4	I: 0.3	J: -1
Cn1cc(/C=C2\C(=O)NC(=O)N(c3ccccc3)C2=O)c2ccccc21
  A: -10	B: 39	C: 26	D: 5.5	E: -25	F: -10	G: -1	H: 2	I: 0.5	J: -12
C/C(=N\Nc1ccccc1)c1c(O)n(-c2ccccc2)c(=O)[nH]c1=O
  A: 1	B: .	C: .	D: .	E: .	F: 3.0	G: -3	H: 99*	I: -0.8	J: -21
Nc1ncn[nH]1
  A: -4	B: 18	C: 2	D: 1.1	E: -2	F: -2.4	G: 0	H: -3	I: 1.0	J: 6
O=C(Nc1ccc(F)cc1F)c1cccn(Cc2ccccc2)c1=O
  A: 6	B: 3	C: 5	D: -0.2	E: -1	F: -2.4	G: -1	H: 2	I: -2.0	J: 3
Cc1cc(Cl)ccc1C(=O)C1CCCN(Cc2ccon2)C1 (configuration not stated)
  A: -1	B: -22	C: -30	D: -7.1	E: 0	F: 0.6	G: -7	H: -5	I: 1.0	J: 1
O=c1[nH]c(=S)n(CCC2=CCCCC2)c(O)c1/C=N/N1CCOCC1
  A: -5	B: .	C: .	D: .	E: 0	F: -13	G: 7	H: 4	I: -0.4	J: 3
Cc1nc2ccccc2c(=O)n1-c1ccccc1C(F)(F)F
  A: -9	B: 10	C: 2	D: -6.1	E: -15	F: -9.8	G: 13	H: 1	I: -0.6	J: -8
COc1c(O)ccc2c1-c1c3c(cc4c1C(C2)N(C)CC4)OCO3 (configuration not stated)
  A: 3	B: 10	C: 1	D: 1.0	E: -13	F: -4.3	G: -1	H: 7	I: 0.1	J: -17
Cc1cc(N2CCOCC2)ccc1/C=C1\C(=O)NC(=O)N(c2ccccc2)C1=O
  A: -1	B: 2	C: 2	D: -0.7	E: -7	F: 2.7	G: 1	H: 14	I: -0.2	J: 4
Cn1c(O)c(N=Nc2cccc(S(=O)(=O)N3CCOCC3)c2)c(=O)n(C)c1=O
  A: -3	B: 6	C: 9	D: 2.7	E: -5	F: -3.4	G: -9	H: 10	I: 0.9	J: 34
O=C1NC(=O)N(c2ccccc2)C(=O)/C1=C/c1ccoc1
  A: -3	B: 24	C: 9	D: 19	E: 0	F: -6.1	G: 5	H: 10	I: 1.4	J: 0
CC(=O)c1c(C)n(Cc2ccccc2Cl)c2ccc(O)cc12
  A: -18	B: 2	C: -1	D: -1.8	E: 7	F: -3.5	G: 2	H: -1	I: 0.3	J: 22
O=C(O)Cn1cc(/C=C2\C(=O)NC(=O)N(Cc3ccco3)C2=O)c2ccccc21
  A: 0	B: 13	C: 9	D: 5.0	E: -15	F: 1.0	G: 2	H: 98*	I: 0.8	J: -12
COP(=O)(/C=C(\Cl)c1ccccc1)/C=C(\Cl)c1ccccc1
  A: 1	B: -48	C: -74	D: -15	E: -6	F: -4.2	G: -5	H: .	I: 1.0	J: -10
COc1ccc(C(=O)C2CCCN(C3CSCCSC3)C2)c(OC)c1 (configuration not stated)
  A: 3	B: -9	C: -1	D: -2.1	E: 12	F: 1.5	G: 3	H: -18	I: 0.1	J: -1
O=P1(Oc2ccccc2)OCCCS1 (configuration not stated)
  A: -4	B: 10	C: 0	D: -1.9	E: -2	F: -7.0	G: -1	H: 1	I: -1.1	J: -3
CCN(CC)CCCC(C)N=C(c1ccccc1)c1c(O)n(C)c(=O)n(C)c1=O (configuration not stated)
  A: -1	B: .	C: .	D: .	E: 2	F: -0.8	G: -9	H: -24	I: 0.0	J: 4
CN(C)c1ccc(CN2CC=C(c3ccc(F)cc3)CC2)cc1
  A: -5	B: .	C: .	D: .	E: 51	F: 2.4	G: -8	H: 36	I: -0.7	J: -25
CCOC(=O)CSCCOc1ccc(C=C2C(=O)NC(=O)NC2=O)cc1OC
  A: 2	B: 15	C: 11	D: 3.4	E: -2	F: -4.5	G: -5	H: -18	I: -0.9	J: -3
CC(=NCCN1CCCCC1)c1c(O)n(-c2ccccc2)c(=O)[nH]c1=O
  A: -11	B: 1	C: 7	D: -2.6	E: -7	F: -3.0	G: -2	H: 1	I: 0.1	J: 25
C[n+]1ccc(-c2ccccc2)c2ccccc21
  A: 40	B: 9	C: 11	D: -2.4	E: -5	F: 0.1	G: -2	H: -24	I: 0.5	J: -32
CCCCC1(CN2CCCC2=O)C(=O)NC(=O)NC1=O
  A: -2	B: .	C: .	D: .	E: 6	F: 4.5	G: -4	H: -5	I: 0.9	J: -2

# The closing two records of the part above come first, to join the parts:
# Short keys: A = Beta apoptosis; B = Ecoli rRNA inh; C = Ecoli rRNA inh OD600; D = Ecoli rRNA inh RFP; E = T cruzi repl; F = LANA-H2B inh; G = Beta2AR agonist; H = ALR inh; I = Bfl-1 A1 inh; J = Calb FLC
C[n+]1ccc(-c2ccccc2)c2ccccc21
  A: 40	B: 9	C: 11	D: -2.4	E: -5	F: 0.1	G: -2	H: -24	I: 0.5	J: -32
CCCCC1(CN2CCCC2=O)C(=O)NC(=O)NC1=O
  A: -2	B: .	C: .	D: .	E: 6	F: 4.5	G: -4	H: -5	I: 0.9	J: -2
Cc1ccnc(-n2c(-c3ccccc3)nc3ccccc3c2=O)c1
  A: -1	B: 5	C: 5	D: -1.0	E: 18	F: 0.9	G: -2	H: -6	I: 1.6	J: -1
COc1ccc(C(=O)c2nc3ccccc3n2C(C)C)cc1
  A: -9	B: -36	C: -60	D: -1.2	E: -23	F: -5.4	G: -15	H: -3	I: 0.4	J: 28
O=C1NC(=O)N(c2ccc(Br)cc2)C(=O)/C1=C/c1ccsc1
  A: -7	B: .	C: .	D: .	E: -8	F: 4.9	G: 2	H: 57	I: 0.7	J: -4
COc1ccc(-n2c(O)c(/C=C/C=Nc3ccccc3)c(=O)[nH]c2=O)cc1
  A: .	B: .	C: .	D: .	E: 2	F: -32	G: -1	H: -2	I: 0.0	J: 7
COc1ccc(C(=O)C2CN(C)CC2c2ccc(Cl)cc2)cc1 (configuration not stated)
  A: -6	B: -17	C: -23	D: -2.7	E: 6	F: -3.8	G: -6	H: 4	I: -0.1	J: -28
COC1=C(C)C(=O)O[C@]12C(=O)C(C)=C1CCCCN3[C@H]([C@@H]4C[C@H](C)C(=O)O4)CC[C@]132
  A: 0	B: 15	C: 6	D: 4.6	E: .	F: 7.5	G: -1	H: 2	I: 0.1	J: .
Cc1ccccc1CN1CCN(C(=O)Cc2ccccc2)CC1
  A: .	B: 11	C: -6	D: 1.6	E: 2	F: 1.8	G: -5	H: -8	I: -0.2	J: -5
c1ccc(C2CC3CC4(CCCC4)N2O3)cc1 (configuration not stated)
  A: -20	B: .	C: .	D: .	E: -6	F: -2.7	G: 6	H: 3	I: -0.4	J: -13
C[C@@H](N)Cc1cnc[nH]1
  A: -15	B: .	C: .	D: .	E: -6	F: 3.6	G: 3	H: -7	I: -0.6	J: 32
CC(C)(C)C(=O)Nc1ccc(S(=O)(=O)N2CC3CC(C2)c2cccc(=O)n2C3)cc1 (configuration not stated)
  A: -2	B: 13	C: 10	D: 0.2	E: 4	F: 2.7	G: -3	H: -2	I: 0.5	J: -3
O=C(CCc1nc(-c2ccccc2F)no1)N1CCC2(CC1)OCCO2
  A: 0	B: .	C: .	D: .	E: -9	F: -2.6	G: -3	H: -3	I: 0.0	J: -1
Cc1nn(C2CCOC(C)(C)C2)c2c1C(c1ccc3c(c1)OCO3)SCC(=O)N2 (configuration not stated)
  A: 1	B: .	C: .	D: .	E: -6	F: 2.8	G: 5	H: -5	I: -0.1	J: ?
Cc1ccccc1N1CCN(Cc2ccc3c(c2)OCO3)CC1
  A: -1	B: -14	C: -16	D: -2.5	E: 2	F: -2.1	G: -4	H: 14	I: 0.5	J: -3
C=C(Cl)CSC(=S)N(CC)CC
  A: -1	B: 6	C: 7	D: 0.0	E: .	F: 3.3	G: 0	H: 8	I: -0.6	J: .
COc1ccc(/C=C2\C(=O)NC(=O)N(CCC3=CCCCC3)C2=O)c(OC)c1
  A: -4	B: -2	C: 4	D: -1.1	E: -9	F: -4.2	G: 9	H: 20	I: -0.6	J: 19
CCC(C)NC(=O)CCC(=O)OC1O[C@H]2OC3(C)CC[C@H]4[C@H](C)CCC(C1C)C24OO3 (some centres not stated)
  A: 33	B: -28	C: -60	D: 29	E: 40	F: 2.7	G: 7	H: -1	I: 1.0	J: 0
CCOCCc1c(O)[nH]c(=S)[nH]c1=O
  A: -11	B: 15	C: 4	D: 12	E: -17	F: 0.5	G: 8	H: -1	I: 0.5	J: -8
COc1ccc(/C=C2\C(=O)NC(=O)N(Cc3ccccc3)C2=O)c(OC)c1OC
  A: -1	B: 6	C: 11	D: 3.4	E: -26	F: -1.4	G: -4	H: 57	I: -0.6	J: -21
Cc1ccc(/C=C2\C(=O)NC(=S)N(c3ccccc3F)C2=O)s1
  A: -4	B: .	C: .	D: .	E: .	F: 6.3	G: 71*	H: 98*	I: 0.9	J: .
CCOCCN1CCC(OC(C)=O)C(C)C1 (configuration not stated)
  A: -3	B: .	C: .	D: .	E: -9	F: -1.0	G: 6	H: .	I: 0.4	J: 1
CSCCC(N=Cc1c(O)n(-c2ccc(Cl)cc2)c(=O)[nH]c1=O)C(=O)OC(C)(C)C (configuration not stated)
  A: -2	B: .	C: .	D: .	E: -5	F: 6.5	G: -1	H: -23	I: 0.4	J: -3
COc1ccccc1-n1c(O)c(C=NCc2ccc3c(c2)OCO3)c(=O)[nH]c1=O
  A: -1	B: .	C: .	D: .	E: -1	F: 0.7	G: 3	H: -4	I: 0.5	J: 2
CC(C)N1CCN(Cc2c[nH]c3ccccc23)CC1CCO (configuration not stated)
  A: .	B: 6	C: 6	D: 0.4	E: -1	F: -1.9	G: -4	H: -3	I: 0.9	J: 0
Cc1ccc(C)c(C2(O)CC(C)N(C)CC2C)c1 (configuration not stated)
  A: -8	B: .	C: .	D: .	E: 0	F: -3.1	G: -2	H: -2	I: 0.4	J: -1
S=C1Nc2ccccc2Sc2ccccc21
  A: -5	B: -37	C: -38	D: -4.1	E: -20	F: -0.6	G: 3	H: -1	I: 0.8	J: -20

# Screening data (PubChem)
